KCNQ2 enhance = potentiators of rat KCNQ2 potassium channel | CHO-K1 KCNQ2, FluxOR thallium flux fluorescence; stronger effect = higher value | AID 2239 | O88943 | B-score at 10 µM | hit rate 0.54% among 310,000;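 active = fluorescence ratio B-score at least 3 SD of library B-scores, with initial fluorescence B-score within 3 SD, cut at about 5.3 in these data; same plate scores as AID 2156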;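 also: B-score of peak minus minimum over baseline fluorescence ratio after K+ and Tl+ stimulus; positive B-score means potentiation of KCNQ2 with more thallium influx and brighter signal; only the inactives scoring about 0 or higher are listed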
Target sequence (O88943 whole entry, looked up): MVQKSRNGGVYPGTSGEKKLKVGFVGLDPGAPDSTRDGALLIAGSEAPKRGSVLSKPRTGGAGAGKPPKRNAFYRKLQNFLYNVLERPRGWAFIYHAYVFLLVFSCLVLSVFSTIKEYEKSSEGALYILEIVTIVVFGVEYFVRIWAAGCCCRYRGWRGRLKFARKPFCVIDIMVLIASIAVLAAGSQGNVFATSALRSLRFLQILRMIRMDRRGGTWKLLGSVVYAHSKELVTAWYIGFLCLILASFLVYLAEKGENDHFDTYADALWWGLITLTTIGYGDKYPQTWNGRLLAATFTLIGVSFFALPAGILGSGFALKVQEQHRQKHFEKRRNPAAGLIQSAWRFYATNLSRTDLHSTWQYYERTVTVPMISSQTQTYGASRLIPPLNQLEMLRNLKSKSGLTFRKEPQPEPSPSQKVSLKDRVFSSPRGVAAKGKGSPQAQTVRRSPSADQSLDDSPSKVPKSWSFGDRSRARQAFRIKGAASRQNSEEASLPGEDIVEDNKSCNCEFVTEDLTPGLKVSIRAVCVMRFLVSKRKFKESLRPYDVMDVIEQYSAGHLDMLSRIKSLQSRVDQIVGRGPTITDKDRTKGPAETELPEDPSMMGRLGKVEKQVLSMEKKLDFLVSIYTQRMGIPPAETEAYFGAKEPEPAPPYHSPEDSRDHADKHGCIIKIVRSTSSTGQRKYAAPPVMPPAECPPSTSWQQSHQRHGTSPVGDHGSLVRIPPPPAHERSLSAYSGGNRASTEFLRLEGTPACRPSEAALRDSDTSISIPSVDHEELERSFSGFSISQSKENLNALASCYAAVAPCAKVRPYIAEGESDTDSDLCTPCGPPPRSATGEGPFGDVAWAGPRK
KCNQ2 enhance baseline = further read-out of KCNQ2 enhance, marked with its call; B-score; compound at 10 µM; measured here: initial fluorescence intensity artifact check;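 brightness before thallium and not channel activity; 0 = typical well and far values either way flag optical interference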
The depositor's hits bear a star.

SMILES	KCNQ2 enhance	KCNQ2 enhance baseline
O=C(CC1C(=O)NCCN1Cc1ccc(-c2ccccc2)cc1)NC1CCC1 (stereo not given)	0.52	0.11
O=C(O)c1cccc(NC(=O)c2ccc(CN3C(=O)c4ccccc4C3=O)cc2)c1	0.78	-1.4
COc1ccccc1NC(=O)CSc1nnc(CNC(=O)c2cccs2)o1	2.2	-1
Cc1cc(C)c2oc(C(=O)N3CCN(C)CC3)cc(=O)c2c1	0.6	0.54
NC(=O)[C@H]1CC2(CC(c3cccc(NC(=O)c4ccccc4)c3)=NO2)CN1C(=O)[C@H]1CCC(=O)N1 (stereo not given in full)	1.9	-1.1
CCn1c(CSc2nc3ccccc3s2)n[nH]c1=S	0.27	0.08
c1cc2nnnn2nc1N1CCCCC1	0.57	-1.5
O=C1CCCN1CCC1CCCCN1Cc1nc(COc2ccccc2)no1 (stereo not given)	0.36	-0.01
CCCCn1c(N)c(N(Cc2ccccc2OC)C(=O)COc2ccc(F)cc2Cl)c(=O)[nH]c1=O	0.05	3.1
CC1CCc2c(sc(NC(=O)c3ccco3)c2C(=O)O)C1 (stereo not given)	1.6	-2
CCCn1nnnc1SCC(=O)N1CCCc2ccccc21	0.39	-0.18
Brc1ccc(CSc2nnc(Cc3c[nH]c4ccccc34)o2)cc1	0.2	-0.02
Cc1noc(C)c1COc1ccc(C(=O)NCCc2ccc(S(N)(=O)=O)cc2)cc1	1.9	-3.1
COc1ccc(CNC(=O)c2ccc(N3CCC4(CC3)CC(c3ccc(Cl)cc3)=NO4)c(NC(=O)c3ccccc3)c2)cc1	1.1	0.01
COc1cccc2c1OC[C@@H](CO)[C@H]2N(C)C(=O)Nc1ccc(Cl)cc1	0.88	-0.69
CCn1cc(C(=O)NN)c(=O)c2cc(F)c(NC3CCCCC3)cc21	1.3	-1.4
O=C(Nc1ccc(NC(=O)N2CCN(c3ccccc3O)CC2)cc1)N1CCN(c2ccccc2O)CC1	1.4	-0.13
Cc1cc(C)n(-c2ccc(C(=O)OCC(=O)NCc3ccc(F)cc3)cc2)n1	1.8	-0.29
CCOc1ccc(OCCC(=O)OCC(=O)NCc2ccc(Cl)cc2)cc1	0.07	0.09
CC(C)Cc1nnc(NC(=O)CCc2ccccc2)s1	21*	-1.6*

Three entries out of the list, ordered by SMILES length, high to low.
SMILES	KCNQ2 enhance	KCNQ2 enhance baseline
CCOc1ccc(OCCC(=O)OCC(=O)NCc2ccc(Cl)cc2)cc1	0.07	0.09
Brc1ccc(CSc2nnc(Cc3c[nH]c4ccccc34)o2)cc1	0.2	-0.02
CCCn1nnnc1SCC(=O)N1CCCc2ccccc21	0.39	-0.18

Continued.
SMILES	KCNQ2 enhance	KCNQ2 enhance baseline
CC1(C)CC(=O)C=C(NC2CCCCCCC2)C1	0.11	1.7
O=C(Nc1nc(-c2ccccn2)cs1)C1CC1	0.62	-0.04
COc1ccc(Nc2oc(COc3ccc(OC)cc3)nc2C#N)cc1	0.11	0.96
CCC(Sc1nnc(C)s1)C(=O)Nc1nccs1 (stereo not given)	1.4	0.04
Cc1ncc([N+](=O)[O-])n1CC(=O)Nc1ccc(F)cc1F	0.8	-1.5
COC(=O)C1CCN(C(=O)C(C)Oc2ccc(Cl)cc2Cl)CC1 (stereo not given)	0.38	-0.56
Cc1cc(-c2c(C)n([O-])c(C)c(C)[n+]2=O)ccc1F	0.17	0.28
CCCc1ccc2oc(C(=O)N(C)CCn3ccnc3C)c(C)c2c1	1.7	1.6
CCn1c(=O)c2ccccc2n(CC(=O)NC2CCCCC2)c1=O	0.01	0.05
NC(=O)C1CCN(C(=O)CCC(=O)N2CCOc3ccc(Cl)cc32)CC1	0.4	-2.3
COc1ccccc1/C=C1\SC(=S)N(CCC(=O)Nc2cc(C)on2)C1=O	0.93	1.7
COc1ccc(C(C(=O)NC2CCCCC2)N(C(=O)c2cccs2)c2ccc3c(c2)OCO3)cc1 (stereo not given)	0.28	-1
Cc1cc(C(=O)Cn2cnc3ccccc3c2=O)c(C)n1C1CC1	0.38	-2.3
CCOC(=O)N1CCN(Cc2nc(-c3ccc(Cl)cc3)no2)CC1	0.95	-0.29
Cc1ccc(N=Nc2c(N)[nH]n3c(=O)cc(C)nc23)cc1	2	-1.3
O=C(O)Cn1nnc(-c2cccs2)n1	0.19	0.6
Cc1ccc(-n2nc3c(=O)n(CCCC(=O)NC4CCC(C)CC4)nc(C)c3c2C)cc1 (stereo not given)	0.07	0.02
CCN(CC)c1ccc(NC(=S)Nc2ccc(F)cc2)cc1	0.04	-0.55
O=C(CN1C(=O)/C(=C/c2ccccc2)SC1=S)NC1C=CS(=O)(=O)C1 (stereo not given)	0.67	-0.35
Cc1ccc(NC(=O)CN(C)C(=O)Cc2ccccc2F)cc1	1.6	-1.3
CSCCC1NC2(C(=O)Nc3c(Cl)cccc32)[C@@H]2C(=O)N(C3CCCC3)C(=O)[C@H]12 (stereo not given in full)	1.1	0.83
O=C(Nc1ccccc1N1CCN(c2ccccc2)CC1)C12CC3CC(CC(C3)C1)C2	1.1	0.57
CCCc1n[nH]c(=O)[nH]1	0.3	-0.23
CCOC(=O)c1cn[nH]c1NC(=S)Nc1ccc(Cl)cc1	0.24	2.6
CCOC(=O)C1C(c2cccc([N+](=O)[O-])c2)C2C(=O)NN=C2CC1(C)O (stereo not given)	0.04	-0.34
CN(C(=O)CSc1nnc(-c2cccs2)o1)C1CCS(=O)(=O)C1 (stereo not given)	1	-1.1
CCc1c2ccccc2nn1-c1ccccc1C(=O)C(C)=O	0.26	0.42
Cc1ccc(-c2c(C)n([O-])c3c([n+]2=O)CCCC3)o1	0.96	-1.4
COc1cc(CCC(C)=O)ccc1OC(=O)c1c(F)cccc1Cl	1.2	-0.15
CC(C(=O)N(C)C1CCS(=O)(=O)C1)N1C(=O)/C(=C/c2cccs2)SC1=S (stereo not given)	0.53	0.6
CCOc1ccc(NC(=S)NC(=O)c2c(Br)cnn2C)c([N+](=O)[O-])c1	0.25	-0.25
O=C(Cn1cnc2c(nnn2Cc2ccccc2)c1=O)N1CCN(c2ccccc2)CC1	0.29	1.1
O=C(c1ccc(CS(=O)c2ccccc2Cl)o1)N1CCCCCC1 (stereo not given)	0.05	-0.33
Cc1cccc(N=C2NC(=O)/C(=C/c3cn(C)c4ccccc34)S2)c1	0.92	0.82
CC(C)c1ccc(N(CC(=O)NCc2cccnc2)S(=O)(=O)c2ccccc2)cc1	0.5	0.03
CC1C(=O)OC2C1CCC1(C)CCC(=O)C(C)C21 (stereo not given)	1	-1
CC1CCCN(Cc2cnc(Cl)s2)C1 (stereo not given)	0.15	1.5
COc1ccc(-c2cc3ccccc3nc2N)cc1OC	1.4	1.2
COc1ccccc1C(=O)NC1CC2CCC(C1)N2Cc1ccccc1 (stereo not given)	1.5	0.4
CCOCCCn1c(SCC(=O)/C(C#N)=C(\C)N)nc2ccccc2c1=O	1.7	1.6

Four of these compounds, reformatted:
molecule | KCNQ2 enhance | KCNQ2 enhance baseline
CC(C)c1ccc(N(CC(=O)NCc2cccnc2)S(=O)(=O)c2ccccc2)cc1 | 0.5 | 0.03
CC1C(=O)OC2C1CCC1(C)CCC(=O)C(C)C21 (stereo not given) | 1 | -1
CC1CCCN(Cc2cnc(Cl)s2)C1 (stereo not given) | 0.15 | 1.5
COc1ccc(-c2cc3ccccc3nc2N)cc1OC | 1.4 | 1.2

Among those listed so far, these have a cyano group:
SMILES	KCNQ2 enhance	KCNQ2 enhance baseline
COc1ccc(Nc2oc(COc3ccc(OC)cc3)nc2C#N)cc1	0.11	0.96
CCOCCCn1c(SCC(=O)/C(C#N)=C(\C)N)nc2ccccc2c1=O	1.7	1.6

(continued)
SMILES	KCNQ2 enhance	KCNQ2 enhance baseline
O=C(COC(=O)c1cc(S(=O)(=O)NCc2ccccc2)ccc1O)NCc1ccccc1	1.6	1.4
CCN(CC)CCNC(=O)C(C)c1nn(C)c(=O)c2ccccc12 (stereo not given)	1.8	-0.54
O=C1C=CC(=O)N1c1ccc(I)cc1Cl	0.75	0.77
Cn1c(=NC(=O)CS(=O)(=O)c2ccccc2)sc2cc([N+](=O)[O-])ccc21	2.1	-0.01
O=C(CC1S/C(=N/N=C/c2c[nH]c3ccccc23)NC1=O)Nc1ccccc1 (stereo not given)	1.9	-0.25
COc1ccc(/C=C2\SC(=S)N(NS(=O)(=O)c3ccccc3)C2=O)c(OC)c1	2.2	-1.6
Cc1ccc(S(=O)(=O)N(C)C)cc1NC(=O)[C@H](Cc1ccccc1)N1C(=O)c2ccccc2C1=O	0.93	-0.58
CC(C)c1ccc(NC(=O)COc2nncc3ccccc23)cc1	0.64	-0.63
Cc1ccc(CSc2nc(-c3ccccc3)c(C#N)c(=O)[nH]2)cc1	2.4	-0.59
CCOC(=O)c1csc(NC(=O)CSc2nnc(C3CC3)n2C)n1	0.21	-0.99

Full records, looked up by structure. Values in the order: KCNQ2 enhance | KCNQ2 enhance baseline
Results for Cc1ccc(-n2nc3c(=O)n(CCCC(=O)NC4CCC(C)CC4)nc(C)c3c2C)cc1 (stereo not given) : 0.07 | 0.02
Results for CCOC(=O)c1csc(NC(=O)CSc2nnc(C3CC3)n2C)n1 : 0.21 | -0.99
Results for Cc1cc(C)c2oc(C(=O)N3CCN(C)CC3)cc(=O)c2c1 : 0.6 | 0.54

(list continues)
SMILES	KCNQ2 enhance	KCNQ2 enhance baseline
O=C(CNC(=O)Cc1ccccc1)NCC(=O)N1CCCCC1	0.13	-0.26
NC(=O)C1CCN(c2ccc(S(=O)(=O)N3CCC(Cc4ccccc4)CC3)cn2)CC1	0.53	1
Cn1cc(CN2CCCCC2CO)c(-c2ccc(Oc3ccccc3)cc2)n1 (stereo not given)	0.17	0.3
COc1ccc(/C(O)=C2/C(=O)C(=O)N(CCCN3CCOCC3)C2c2ccc(C)cc2)cc1 (stereo not given)	0.06	-1.4
COC(=O)CSc1nccc(C)n1	0.27	-2.1
Cc1oc2cc(O)ccc2c(=O)c1Oc1ccc(F)cc1	0.25	-0.33
O=C(Cn1cnc2scc(-c3ccc(Br)cc3)c2c1=O)N1CCOCC1	1.9	-0.34
CCCCNC(=O)C1CCN(S(=O)(=O)c2cnc[nH]2)CC1	1.2	2.3
O=C(Nc1sc2c(c1C(=O)O)CCC2)c1cccc(Cl)c1	2.7	-1.6
Cc1cc(C)c(-c2c(O)c3cccnc3n(C)c2=O)c(C)c1	0.58	-1.2
NC(=O)c1ccc(-c2nnc(Nc3ccc(S(N)(=O)=O)cc3)c3ccccc23)cc1	0.3	-0.04
CCC(Oc1cccc(C)c1)C(=O)Nc1ccccc1C(=O)N1CCOCC1 (stereo not given)	0.82	-1.6
CC(=O)c1cccc(NC(=O)c2ccc(-c3ccccc3[N+](=O)[O-])o2)c1	1.2	-2.5
CCOC(=O)c1c(NC(=O)C2CC2)sc2c1CC(C)(C)OC2	1.1	-1.6
CCOC(=O)C1CCCN(C(=O)c2ccc3c(=O)n(CCOC)c(=S)[nH]c3c2)C1 (stereo not given)	0.65	-2.3
CCN(CC)CC(=O)Nc1ccc2c(c1)Nc1ccccc1CC2	1.8	-0.44
Cc1nc(SCC(=O)c2ccc(Cl)cc2)c([N+](=O)[O-])[nH]1	2.1	1.8
COc1ccc(C(=O)Nc2ccccc2C(=O)Nc2cc(C)ccn2)cc1	0.94	0.17
COc1cc(C(=O)NCC(=O)N2CC=C(c3ccccc3)CC2)cc(OC)c1OC	0.04	0.73
N#Cc1c(-c2ccco2)nc(SCc2ccc(F)cc2)[nH]c1=O	0.97	0
COc1ccc(NS(=O)(=O)c2cccc(C(=O)NNC(=O)c3ccccc3OC)c2)cc1	1.6	-1.6
O=C(O)c1ccn(COc2ccc(Br)cc2)n1	1.4	-2
COc1ccc(CNC(=O)C2CC(C)=C(C)CC2C(=O)O)cc1OC (stereo not given)	0.02	-0.19
Cc1ccc(-c2cc(N)n3nc(-c4ccc(C)cc4)cc3n2)cc1	0.32	0.78
CC(=O)N1N=C(c2ccc(Br)cc2)OC12CCCC2	0.03	1.8
CCOC(=O)N1CCC(NC(=O)c2cc(S(=O)(=O)N3CCOCC3)ccc2F)CC1	0.04	0.22
CCOc1cccc2sc(=NC(=O)c3ccco3)n(CC(=O)OC)c12	0.13	-1.2
O=C(Nc1ccccc1)NC1(C(=O)NCc2cccs2)CCCCC1	0.28	0.47
CCCCCn1c(=O)[nH]c2cc(C(=O)N3CCN(Cc4ccc5c(c4)OCO5)CC3)ccc2c1=O	0.38	-0.95
Cc1cc(C(=O)N2CCN(Cc3ccccc3)CC2)on1	0.38	-1.2
CN(c1ccccc1)S(=O)(=O)c1ccc(Cl)c(C(=O)OCC(=O)NC2CCS(=O)(=O)C2)c1 (stereo not given)	2	2.4
O=C(NC(=O)c1ccccc1F)Nc1nc(-c2cccs2)cc(C(F)(F)F)n1	1.2	0.14
O=c1c(-c2ccnn2-c2cccc(Cl)c2)cnc2n1CCS2	0.68	-0.4
Cn1c(=O)n(C)c2cc(NC(=O)CCc3ccccc3)c(Br)cc21	5	0.67
COCC(=O)Nc1nnc(SCC(=O)N2CCCCC2)s1	1.1	-0.67
Cc1cccc(-c2nc(Nc3cccc(O)c3)c3ccccc3n2)c1	0.41	-0.77
CCOc1ccc2cc(C#N)c(SCC(=O)NC(C)CC)nc2c1 (stereo not given)	0.37	-0.65
COc1ccc(/C=C(\NC(=O)c2ccc(OC)c(OC)c2)C(=O)NCCc2c[nH]c3ccccc23)cc1	0.45	-0.1
CC(C)(C)c1cnnn1-c1ccc(NC(=O)c2ccc(Br)o2)cc1	0.24	0.06
CCNC(=S)N/N=C/c1ccc(OCc2ccc(C(=O)OC)cc2)cc1	0.49	0.78
CC(C)c1ccc(Nc2c([N+](=O)[O-])c(=O)n(C)c3ccccc23)cc1	1.8	-2.4
CCC(C)[C@H](NC(=O)N1CCC(C)CC1)C(=O)OC (stereo not given in full)	1	-0.29
OC(CN1c2ccccc2Sc2ccccc21)Cn1nnc2ccccc21 (stereo not given)	0.71	1.1
Cc1ccc(S(=O)(=O)/N=C(/c2ccccc2)N2CCOCC2)cc1	0.41	-1.4

Screening data deposited in PubChem BioAssay by Johns Hopkins Ion Channel Center.

Only part of the results is shown; the hit share may differ from the screen's.
